Tgondii IFNg: T. gondii growth inhibition under IFN-gamma; Toxoplasma gondii growth in IFN-gamma-treated host cells; hits give low values; reference of the scale not given here; activity change, negative = inhibition, %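 (about 20 µM by stock and volumes)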; 69,000 compounds, 3.8% hits;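 active = below -70%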;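 note: host cells are HeLa cells infected with Toxoplasma gondii; parasite growth read as luciferase light; one replicate is shown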
The depositor's hits bear a star. The list is partial; rates above refer to the full screens.

SMILES	Tgondii IFNg
Cc1cc(C)cc(NC(=O)C(=O)NCCc2sc(-c3ccc(F)cc3)nc2C)c1	5
CC(C)c1ccc(S(=O)(=O)N2CCC3(CC2)NCCN=C3NCc2ccc3c(c2)OCO3)cc1	2
O=S(=O)(Cc1noc(-c2ccsc2)n1)c1ccccn1	11
COc1ccccc1CN(Cc1nc2ccccc2n1C)C1CC1	-2
CCCC(=O)Nc1sc(C)c(C)c1C(=O)Nc1cccc(C)c1	19
CCN1c2cc(C)ccc2-n2cccc2C12CCN(C(=O)Nc1ccc(F)cc1F)CC2	-21
Cc1ccsc1[C@@H]1CCN(C(=O)CN(C)Cc2cccnc2)C[C@H]1O	-33
CCc1noc(CCC(=O)N2CCOC(C)(C(=O)NC3CCCC3)C2)n1 (stereo not given)	-30
CCS(=O)(=O)N1CC[C@H]2O[C@@H](C(=O)N(C)C)CC[C@@H]21	-22
CCS(=O)(=O)N1CCc2c(cnc(-c3cccnc3)c2C(=O)O)C1	66
CCc1cc(-c2nccn2-c2ccc(-c3ccn[nH]3)cc2)on1	3
O=C(NCCNC(=O)c1cc2ccccc2cc1O)c1cc2ccccc2cc1O	-10
Cc1[nH]cnc1-c1nccn1CCc1c(C)n2c3c(cccc13)CCC2	10
CCOc1ccc2c(c1)c(C(=O)NC(C)(C)CN1CCCCC1)c(C)n2C	-1
CO[C@@H]1CC[C@H]2CCN(C)C(=O)[C@H](C)CN(C)C(=O)c3cc(C#N)ccc3OC[C@@H]1O2	57
Fc1cccc(Cl)c1/C=C/c1cnc2ccccc2n1	441
CCCC#Cc1ccc([C@@H]2[C@@H](CO)N3CCCCN(CCC)C[C@@H]23)cc1	-13
CC(C)Cc1nc(CN(C)C(=O)c2cc(C(C)C)on2)no1	-12
Cc1cnc(CNC(=O)C2=NOC3(CCN(C(C)C)C3)C2)cn1 (stereo not given)	-3
CC(C)CN1C(=O)NC(C)(c2ccc(F)cc2)C1=O (stereo not given)	4
Cc1ccc2c(C(=O)N3CCN(C4CCN(C)CC4)CC3)cc(NC(=O)C(C)C)cc2n1	6
O=C(c1cccc2nccnc12)N1CCOC(c2ccc(Cl)cc2)C1 (stereo not given)	34
CCC(C(=O)NCc1ccccn1)n1c2ccccc2c2cnn(C)c(=O)c21 (stereo not given)	11
Cn1nc(C(=O)O)c2c1CCN(C(=O)C1(C)CCCO1)C2 (stereo not given)	3
COc1ccc(-c2nc(NCCCN(Cc3ccco3)C3CCCC3)c3ccccc3n2)cc1	-49
Cc1cc(=O)oc2cc(CN(Cc3nccn3C)C3CC3)ccc12	2
CCCC#Cc1cnc2c(c1)C(=O)N([C@@H](C)CO)C[C@@H](C)[C@@H](CN(C)C(=O)Nc1cc(F)ccc1F)O2	0
COc1ccc(F)c(F)c1-c1nccn1Cc1ccccc1-n1cncn1	2
O=C(O)COc1ccc(-n2cccc2)cc1	-35
N#Cc1c(F)cccc1Oc1ccccc1	32
Cc1ccc(-c2nn(-c3ccccc3)c(=O)c3ccccc23)cc1C	3
O=C1CC2(CCCC2)C(=O)N1c1ccc(S(=O)(=O)NCc2ccco2)cc1Cl	-2
Cc1nc(N2CCOCC2)nc2c1CN(CCC(C)C)CC2	1
COc1cc2c(cc1OC)C(c1ccnn1C)=NCC2	-8
CCN1CCn2c3c(c4cc(Cl)ccc42)CCCC31 (stereo not given)	78
COc1ccc(-c2nc(Cn3nnc(-c4nc(-c5cccc(C)c5)no4)c3C)c(C)o2)cc1	5
COc1ccc2c3c([nH]c2c1)[C@@H](CO)N(C)CC31CCN(S(=O)(=O)c2ccc(C)cc2)CC1	-51
O=S(=O)(NCCC1=CCCCC1)c1ccc(Cl)s1	-3
CN1CCN(C(=O)C[C@@H]2CC[C@H]3[C@H](COc4ccc(NC(=O)c5cccs5)cc4C(=O)N3C)O2)CC1	-34
OC[C@H]1[C@@H](c2ccccc2)C2(CN(Cc3nccs3)C2)N1Cc1cc(F)ccc1F	-40
COc1cccc(NC2COC3(CCN(C(=O)c4ccc(N(C)C)cc4)CC3)C2)c1 (stereo not given)	1
CN(CCCc1cnn(C)c1)C(=O)c1cnn2ccn(C)c12	-18
CN1CCN(c2cc(C(=O)Nc3ccc(OCc4ccccc4F)cc3)ccn2)CC1	-76*
CCCCC/C=C\C[C@H](O)/C=C/c1cccc(C[C@H](O)CCCCO)n1	-12
C[C@@H](NC(=O)C[C@@H]1CC[C@H]2[C@@H](COC[C@H](O)CN2Cc2ccc(C(F)(F)F)cc2)O1)c1ccccc1	-4
C=CCN1CC2CN(c3ncc(F)cn3)CCC2(c2ccccc2)C1 (stereo not given)	-53
Cc1ncc(CN(C)C(C)c2ccccn2)[nH]1 (stereo not given)	3
CN(Cc1ccno1)C(=O)c1ccccc1C1CCNC1 (stereo not given)	2
C=CCn1c(N=Nc2c(O)[nH]c3ccc(Br)cc23)nc2c1c(=O)[nH]c(=O)n2C	12
Cc1ccc(NC(=O)Nc2cc(-c3ccccc3)nn2C)cc1Cl	-52
(cont.)
SMILES	Tgondii IFNg
CCC(CC)C(=O)NCCn1ncc(-c2cnccn2)c1-c1cccs1	94
O=C(CN1C(=O)NC2(CCCCC2)C1=O)NC(Cc1cccs1)c1ccccn1 (stereo not given)	205
Cc1ncc(-c2ccncc2)c(C2CCCN(C(=O)c3ccncc3)C2)n1 (stereo not given)	-50
Cc1ccc(NC(=O)N2CCC3(CC2)CC(CC(=O)NC2CC2)c2ccccc2O3)cc1 (stereo not given)	71
CSc1sc(-c2nnc(SCC(=O)Nc3ccccc3)n2C)c2c1C=CCC2	2
c1ccc(CN=C2Sc3nc4cc5c(cc4cc3CN2CC2CCCO2)OCO5)cc1 (stereo not given)	-16
COCCO[C@H]1CCN(C(=O)N2CCOCC2)[C@H]1Cc1ccccc1	4
Cc1sc2ncnc(Nc3ccccc3)c2c1C	9
Cc1ccc(C#Cc2ccc(C#Cc3ccc(C)cc3)s2)cc1	22
CCCc1nc(N2Cc3cnc(Cc4ccc(OC)cc4)nc3C2)no1	-43
COc1ccc(-c2nc(NCCCN3CCN(c4ccc(F)cc4)CC3)c3ccccc3n2)cc1	-48
N#C[C@@H]1[C@H](c2ccccc2C2=CCCC2)[C@H](CO)N1C(=O)Cc1ccncc1	-44
CS(=O)(=O)N1CCOC2C(COc3ncccn3)CCC21 (stereo not given)	-49
CN1C[C@H]2C3(CCN(Cc4ccco4)CC3)CC[C@@]2(C(=O)N2CCCC2)C1	70
Cn1nc(CNC(=O)C2CCCN(C(N)=O)C2)c2c(Cl)cccc21 (stereo not given)	-2
Cc1cccnc1NCCNC(C)C(=O)NC1CCCC1 (stereo not given)	3
O=C(O)Cn1c2c(c3ccccc31)CCC2	-92*
CCCCN(C)C(=O)Cn1c(=O)c(S(=O)(=O)c2ccccc2)cc2ccccc21	1
CCCCN1C(=O)c2cc(C(=O)N3CCN(c4ncccn4)CC3)nn2CC1(C)C(=O)NC1CCCC1 (stereo not given)	-8
CCc1nc(C)sc1CNC(=O)CSCc1ccccc1Cl	258
CC(C)NC(=O)N1[C@H](CO)[C@@H](c2ccccc2)[C@H]1CN(C)C(=O)c1cccnc1	-22
COCCC1COC2(CCCN(C(=O)Cc3cccnc3)C2)C1 (stereo not given)	246
O=S(=O)(c1ccc(Cl)cc1)N1CCN(c2ccc(N3CCOCC3)nn2)CC1	-27
O=C(c1cc(C2CC2)[nH]n1)N1CCN(Cc2ccccc2CO)CC1	5
NC1CC(=O)N(CCc2cccc(Cl)c2)C1 (stereo not given)	-3
O=C(c1ccno1)N1CC[C@H]2CN(Cc3ccccc3)S(=O)(=O)[C@@H]2CC1	1
COc1ccccc1CNC1=NCCNC12CCN(S(=O)(=O)c1cccs1)CC2	21
CCCNC(=O)N1CC2(CN(CC3CCCCC3)C2)c2c(n(C)c3cc(OC)ccc23)[C@@H]1CO	-70
CCCC(=O)N1CCC(N2CCC(c3ccncc3)CC2)CC1	-7
O=C(NCc1ccc(F)cc1)C1=NOC2(CCNC2)C1 (stereo not given)	115

A portion from the list above:
SMILES	Tgondii IFNg
Cn1nc(CNC(=O)C2CCCN(C(N)=O)C2)c2c(Cl)cccc21 (stereo not given)	-2
Cc1cccnc1NCCNC(C)C(=O)NC1CCCC1 (stereo not given)	3
O=C(O)Cn1c2c(c3ccccc31)CCC2	-92*
CCCCN(C)C(=O)Cn1c(=O)c(S(=O)(=O)c2ccccc2)cc2ccccc21	1
CCCCN1C(=O)c2cc(C(=O)N3CCN(c4ncccn4)CC3)nn2CC1(C)C(=O)NC1CCCC1 (stereo not given)	-8
CCc1nc(C)sc1CNC(=O)CSCc1ccccc1Cl	258
CC(C)NC(=O)N1[C@H](CO)[C@@H](c2ccccc2)[C@H]1CN(C)C(=O)c1cccnc1	-22
COCCC1COC2(CCCN(C(=O)Cc3cccnc3)C2)C1 (stereo not given)	246
O=S(=O)(c1ccc(Cl)cc1)N1CCN(c2ccc(N3CCOCC3)nn2)CC1	-27
O=C(c1cc(C2CC2)[nH]n1)N1CCN(Cc2ccccc2CO)CC1	5
NC1CC(=O)N(CCc2cccc(Cl)c2)C1 (stereo not given)	-3
O=C(c1ccno1)N1CC[C@H]2CN(Cc3ccccc3)S(=O)(=O)[C@@H]2CC1	1
COc1ccccc1CNC1=NCCNC12CCN(S(=O)(=O)c1cccs1)CC2	21
CCCNC(=O)N1CC2(CN(CC3CCCCC3)C2)c2c(n(C)c3cc(OC)ccc23)[C@@H]1CO	-70
CCCC(=O)N1CCC(N2CCC(c3ccncc3)CC2)CC1	-7
O=C(NCc1ccc(F)cc1)C1=NOC2(CCNC2)C1 (stereo not given)	115

Carrying on:
SMILES	Tgondii IFNg
COc1ccc(-n2c(O)cnc2Nc2nc(C)cc(C)n2)cc1OC	16
Cc1cc(C)n(CC(C)Nc2ncc(C)c(N(C)C)n2)n1 (stereo not given)	-4
O=c1c(NCc2ccc(F)cc2)cc(-c2cccs2)nn1Cc1ccc(F)cc1	-31
CCn1ncc(S(=O)(=O)N2CCC(c3nc(C)cc(C)n3)C2)c1C (stereo not given)	-17
CN(C)C(=O)[C@@]12CCCN(c3ncccn3)[C@H]1CN(Cc1cccc(Cl)c1)C2	4
Cc1cnc(NC(C)Cc2cccnc2)nc1N(C)C (stereo not given)	3
O=C(c1nc(-c2ccc(Cl)cc2)n2c1CCCCC2)N1CCC2(CC1)OCCO2	118
Nc1cccc(-c2nnc(/C=C/c3ccc(OC(F)(F)F)cc3)o2)c1	-54
O=C(C[C@H]1CC[C@@H]2[C@H](COC[C@@H](O)CN2C(=O)c2cnccn2)O1)NCc1ccc(Cl)cc1	-3
CCc1c(C)sc2c1CCN(Cc1nc(-c3cccc(OC)c3OC)oc1C)C2c1ccccc1 (stereo not given)	-39
O=C(Nc1ccnn1Cc1ccc2c(c1)OCO2)c1cc2c([nH]c1=O)CCC2	169
CSc1cccc(NC(=O)Cn2c(=O)cc(C(=O)N3CCc4ccccc4C3)c3ccccc32)c1	-65
CCNC(=O)[C@@H]1C[C@@H](N)CN1C(=O)c1ccc(-n2ccnc2)cc1	-1
O=C(c1cccs1)N1CCN(c2ccc(Nc3ccc(-c4ccccc4)nn3)cc2)CC1	-68
CCn1cnnc1C(C)NC(=O)c1ccc2c(c1)nnn2C (stereo not given)	-4
CCn1ncnc1C1CC(=O)Nc2cc3[nH]ncc3cc21 (stereo not given)	-13
CC1CCN(S(=O)(=O)c2ccc3c(c2)CCC(=O)N3CC(=O)Nc2cccnc2)CC1	-9
Cn1cc(NC(=O)c2cccc(CN3CCCC(O)C3)c2)cn1 (stereo not given)	-5
O=c1cc(-c2ccc3c(c2)OCCO3)oc2ccc(Cl)cc12	118
Cc1nn(C)c(C)c1CN(C)C(=O)C(C)(C)NS(=O)(=O)c1cccs1	-2
COC(=O)c1cc2n(n1)CCN(C(=O)c1cc(CC(C)C)nn1C)C2	2
COCC(=O)N1[C@H](CO)[C@@H](c2ccccc2-c2ccccc2F)[C@@H]1C#N	-43
O=C(CN1CCNCC1)N1CC[C@@H](c2ccc3ccccc3c2)[C@H](O)C1	9
CCOC(=O)c1cc(-c2csc(CS(=O)(=O)c3ccccn3)n2)on1	24
CN1c2ccc(C3=CCCCC3)cc2[C@@H]2[C@@H](CCN2C(=O)C2CCOCC2)[C@H]1CO	-40
CCCCNC(=O)[C@@H]1CC=CC[C@@H]1C(=O)N1C[C@H]2C[C@H](O)[C@H](O)C[C@H]2C1	8
Cc1ccccc1C(=O)Oc1ccc(Sc2ccc(O)cc2)cc1	8
NCC(O)CC(=O)O (stereo not given)	12
COc1ccc2c3c(n(C)c2c1)[C@H](CO)N(C(=O)c1ccc(F)cc1)CC31CCN(C)CC1	141
O=C(CCN1CCCCC1c1cccnc1)Nc1nc2ccccc2s1 (stereo not given)	18
CC(C)CCN1Cc2c(C(=O)Nc3cccc(F)c3)ncn2-c2ccccc2S1(=O)=O	-83*
Cn1/c(=N/N=c2\oc3ccccc3n2C)oc2ccccc21	131
Cc1nc(N2CCCC2)nc2c1CCN(C(=O)NC(C)C)CC2	104
Cc1cc(C)n(Cc2nc(-c3ccc(NC(=O)c4ccc(Cl)cc4)cc3)oc2C)n1	2
CCn1c2ccccc2c2cc(CC(N)=O)ccc21	-11
CCN(CC)c1ccc(NC(=S)NC(=O)c2ccco2)cc1	109
CSc1ncc(CN2CCC(CNC(=O)c3ccc[nH]3)C2)cn1 (stereo not given)	-35
Cc1nc(-c2ccc(F)cc2)sc1CCNC(=O)C(=O)Nc1cccc(Cl)c1	2
O=C(Nc1cccc2c1CCCC2)C1CCCN1S(=O)(=O)c1ccc(Cl)cc1 (stereo not given)	8
O=C(O)CN1CCN(C23CC4CC(CC(C4)C2)C3)CC1	0
Cn1c(C(=O)N2CCOCC2)nc2c1CCN(Cc1ccccc1)C2	-4
CC1C=NC(S(=O)(=O)N2CC[C@@H]3[C@H](CO)N(C)c4ccc(C5=CCCCC5)cc4[C@@H]32)=N1 (stereo not given in full)	10
CCC12CC3CC(O)(C1)CC(C(=O)NCCc1cc(=O)[nH]c(C)n1)(C3)C2 (stereo not given)	-6

Assay outcomes: PubChem BioAssay, Broad Institute
